Source: PubChem BioAssay
Vif TR-FRET: inhibitors of Vif binding to APOBEC3G peptide, primary screen, biochemical, TR-FRET, GST-Vif 1-94, biotin-A3G peptide, dose response retest (AID 1117319); Virion infectivity factor (Human immunodeficiency virus type 1 group M subtype B (isolate …; TR-FRET GST-Vif / biotin-A3G peptide binding; higher % means a stronger effect; test concentration not given here; strong numbers were not always called active; inhibition, %; hits with a dose series show IC50 in µM; 260,000 compounds, 0.57% hits;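 active = above the screen mean plus three standard deviations and confirmed in dose response; inconclusive = results disagree or hit not tested in dose response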;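 also: Vif residues 1-94 fused to GST binding biotinylated APOBEC3G peptide 110-148; 0% = full assay without inhibitor and 100% = GST in place of GST-Vif; retest series ran down from 100 µM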
Ecoli growth: E. coli growth inhibition, primary screen, OD600 | Escherichia coli growth, 23 h; stronger effect = lower value | OD600 absorbance (concentration not given with the values) | 330,000 compounds, 0.21% hits;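 active = OD600 absorbance below the run mean of sample wells minus 3.6 SD, in any replicate, cut at about 0.56 in these data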;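 also: stock transfer was 300 nL into about 60 µL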
UCH37 DUB inh: inhibitors of human UCH37 deubiquitinase, primary screen, biochemical, Ub-AMC cleavage, fluorescence | Ubiquitin carboxyl-terminal hydrolase isozyme L5 (Homo sapiens), Q9Y5K5 | purified proteasome/UCH37 | inhibition, % (concentration not given with the values) | 330,000 compounds, 0.33% hits;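 active = mean of two replicates above 20%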;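 also: 0% = compound-free wells with enzyme and 100% = wells lacking proteasome; stock transfer was 100 nL into about 20 µL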
Target sequence (Q9Y5K5 whole entry, looked up): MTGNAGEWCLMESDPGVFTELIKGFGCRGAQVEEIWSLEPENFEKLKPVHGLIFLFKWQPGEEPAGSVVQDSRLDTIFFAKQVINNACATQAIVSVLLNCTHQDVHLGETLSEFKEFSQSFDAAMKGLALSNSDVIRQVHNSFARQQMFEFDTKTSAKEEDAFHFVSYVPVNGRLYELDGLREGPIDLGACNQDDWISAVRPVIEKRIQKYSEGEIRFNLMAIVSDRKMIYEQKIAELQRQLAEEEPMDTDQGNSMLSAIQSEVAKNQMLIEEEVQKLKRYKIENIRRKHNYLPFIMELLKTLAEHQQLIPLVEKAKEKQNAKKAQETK
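Reagent: Ub-AMC substrate; assay system: Proteasome-associated human UCH37 deubiquitinase; controls: no-proteasome and no-compound wells; read-out: % inhibition of Ub-AMC cleavage fluorescence; timing: 30 min preincubation with enzyme, 25 min cleavage at room temperature; signal: AMC fluorescence from Ub-AMC cleavage, excitation 355 nm, emission 460 nm; buffer or medium: Tris-HCl pH 7.4 plus ovalbumin, ATP-MgCl2, DTT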
RanGTP-Imp inh: inhibitors of RanGTP-importin-beta interaction, primary screen, biochemical, FRET, CFP-Ran, YFP-importin-beta, homogeneous; cell-free CFP-Ran/YFP-importin-beta FRET ratio; inhibition, % (no concentration beside the values); 300,000 compounds, 1.1% hits; AID 2216, 2009;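 active = most replicates above 15%; inconclusive = exactly half above 15%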;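 also: 0% = DMSO wells and 100% = Ran loaded with GDP instead of GTP; wells of about 40 µL received 100 nL stock; the first replicate is given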
FGF22 binding: binders of human FGF22 protein, primary screen, FGF22 synaptogenesis inhibitor project, biophysical, thermal shift, single point; 340,000 compounds, 1.5% hits; recombinant FGF22 thermal shift, SYPRO orange fluorescence; percent of sucrose octasulfate shift, DMSO zero; calls only at 9.99 µM; AID 651658, 2012;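 active = melting point raised past a set limit in the mean and every replicate; inconclusive = no clear call; three in four hits are not shown here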
Target sequence (Q9HCT0 whole entry, looked up): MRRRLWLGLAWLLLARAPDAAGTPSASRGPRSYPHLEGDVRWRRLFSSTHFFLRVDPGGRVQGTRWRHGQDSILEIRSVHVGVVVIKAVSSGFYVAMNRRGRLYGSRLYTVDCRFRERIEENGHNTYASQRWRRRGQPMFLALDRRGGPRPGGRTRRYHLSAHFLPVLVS
MLL AF4-AF9 inh: inhibitors of AF4 peptide binding to AF9, primary screen, biochemical, AlphaScreen, biotin-AF4 peptide, FLAG-AF9, single point; Protein AF-9 (Homo sapiens), P42568; 350,000 compounds, 0.47% hits; AID 651704, 2012; inhibition, % at 10 µM;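 active = every replicate reaching a set inhibition limit, whatever the replicate mean, cut at about 25% in these data; inconclusive = mean inhibition reaches that limit but some replicates miss it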;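 also: 0% = plate neutral control median and 100% = total signal loss; the record names both 10 and 1 µM as test concentration; the first replicate is given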
HNF4A DNA FP: change in binding of human HNF4A to DNA, primary screen, biochemical, fluorescence polarization, FITC-DNA. 1 h. activity change, % at 10 µM. 360,000 compounds, 0.3% hits. AID 1224865, 2016; in the data active = activity change above about 30%, passing the limit was not always enough;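 also: controls were the assay level and a saturating level of protein; the project sought stronger binding though the title names inhibitors; some compounds called inactive have numbers as strong as hits; positive values seem to mean higher polarization but the record does not say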
Target sequence (P41235 whole entry, looked up): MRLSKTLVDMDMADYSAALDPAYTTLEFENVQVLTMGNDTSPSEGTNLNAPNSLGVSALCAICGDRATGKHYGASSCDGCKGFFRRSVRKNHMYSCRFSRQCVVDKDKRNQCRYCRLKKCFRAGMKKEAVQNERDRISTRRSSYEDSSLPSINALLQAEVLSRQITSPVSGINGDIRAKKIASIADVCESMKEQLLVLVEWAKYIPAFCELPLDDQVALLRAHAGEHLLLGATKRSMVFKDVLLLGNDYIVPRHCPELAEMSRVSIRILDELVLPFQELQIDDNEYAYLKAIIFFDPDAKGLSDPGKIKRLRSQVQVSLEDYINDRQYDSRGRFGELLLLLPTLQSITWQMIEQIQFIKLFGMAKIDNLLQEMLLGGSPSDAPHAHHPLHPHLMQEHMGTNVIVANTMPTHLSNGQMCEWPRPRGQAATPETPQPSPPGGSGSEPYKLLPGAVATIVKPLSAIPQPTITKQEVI
The depositor's hits bear a star; i = inactive; ? = inconclusive; . = not tested or not shown; & = joins results of further samples. This is a subset. The share of hits here may be higher or lower than overall.

#	SMILES	Vif TR-FRET	Ecoli growth	UCH37 DUB inh	RanGTP-Imp inh	FGF22 binding	MLL AF4-AF9 inh	HNF4A DNA FP
1	COC(=O)C(CCSC)NC(=O)c1cccc([N+](=O)[O-])c1 (stereo unspecified)	10%	0.65	2.9	.	.	.	2.8
2	CCNC(=S)N1CCN(CCNC2=CC(=O)CC(C)(C)C2)CC1	8%	0.69	0.0	1.5	i	0.1	-2.1
3	CC(C)c1nnc(NC(=O)CS(=O)(=O)Cc2ccccc2)s1	.	0.75	3.5	0.6	i	-6.3	-0.3
4	CCN(CC(=O)Nc1cccc(C(C)=O)c1)S(=O)(=O)c1ccc(C)cc1	.	0.68	0.7	-0.9	i	0.9	2.6
5	O=C(COC(=O)c1ccccn1)NNC(=O)c1ccc(Br)cc1	.	0.68	3.1	.	i	-6.5	-2.3
6	COC(=O)c1ccc2c(=O)n(CC3CCCO3)c(=S)[nH]c2c1 (stereo unspecified)	9%	0.7	5.1	-1.5	.	.	-2.5
7	O=C(O)c1cnn(-c2nc(-c3ccc(F)cc3)cs2)c1C(F)(F)F	-11%	0.68	-7.2	3.8	i	-7.7	0.5
8	O=C(O)c1cccc(S(=O)(=O)NCCc2ccccc2)c1	.	0.67	3.8	-6.6	i	-1.2	-0.8
9	COc1ccccc1N1CCN(C(=O)CSc2nc3ccccc3nc2N2CCCCC2)CC1	.	0.79	-1.3	2.6	i	4.4	2.0
10	COc1c2c(c(OC)c3c1c(=O)c1ccccc1n3C)OCO2	3%	.	.	.	i	-10	0.1
11	Cc1ccc(NC(=O)CCc2ccccc2)cc1S(=O)(=O)N1CCOCC1	-3%	0.64	0.3	.	i	0.4	-2.5
12	CN1CCN(C(=O)CCCOc2cc(=O)n(C)c3ccccc23)CC1	3%	0.66	-1.1	3.8	.	.	-2.5
13	C[C@H]1CN([C@@H](C)CO)S(=O)(=O)c2ccc(Br)cc2O[C@H]1CN(C)C(=O)C1CCC1	.	.	.	.	i	-1.9&-4.2	-2.5
14	COC(=O)c1ccc(S(=O)(=O)N2CCN(C(c3ccccc3)c3ccccc3)CC2)n1C	3%	0.68	5.9	3.3	i	.	-1.7
15	O=C1CN(C(=O)COc2ccccc2)CCN1	-2%	0.73	3.1	-0.6	i	5.8	-2.7

Continued (two carried over from the part before).
#	SMILES	Vif TR-FRET	Ecoli growth	UCH37 DUB inh	RanGTP-Imp inh	FGF22 binding	MLL AF4-AF9 inh	HNF4A DNA FP
14	COC(=O)c1ccc(S(=O)(=O)N2CCN(C(c3ccccc3)c3ccccc3)CC2)n1C	3%	0.68	5.9	3.3	i	.	-1.7
15	O=C1CN(C(=O)COc2ccccc2)CCN1	-2%	0.73	3.1	-0.6	i	5.8	-2.7
16	O=C1Nc2ccccc2C12OCC(COc1ccc(Cl)cc1)O2 (stereo unspecified)	-4%	0.69	5.8	2.9	.	.	-2.9
17	CN(c1ccccc1)S(=O)(=O)c1ccc(C(=O)N2CCN(c3ccccc3F)CC2)cc1	.	0.69	-2.0	.	i	4.4	0.4
18	CC(C)C(C)(C#N)NC(=O)CSc1ncnc2sc(-c3ccccc3)cc12 (stereo unspecified)	-8%	0.64	-8.8	3.7	i	-7.7	-0.7
19	CC1(C)CC(=O)C(C(c2ccco2)C2C(=O)CC(C)(C)CC2=O)C(=O)C1	6%	0.73	4.8	0.0	.	.	-0.8
20	CCCCn1nnnc1SCC(=O)Nc1ccc2c(c1)OCCO2	26%	0.7	0.5	-1.0	.	.	-3.7
21	CCOC(=O)c1ccc(NC(=O)CN2CCN(c3ccccc3)CC2)cc1	1%	0.71	1.1	0.3	.	.	-0.1
22	CCOc1ccc(OCCSc2nc(N)cc(=O)[nH]2)cc1	12%	0.67	1.9	3.2	i	.	2.0
23	COCCc1ccc(OC2(C)CCN(Cc3ccc(OC)c4ccccc34)C2)cc1 (stereo unspecified)	.	.	.	.	i	-0.6	3.9
24	COc1ccc(NC(=O)CC2C(=O)N(c3cccc(OC)c3)C(=O)N2C2CCCCC2)cc1 (stereo unspecified)	-3%&-7%	0.66	0.5	4.8	.	.	-1.4
25	CN(CC(=O)Nc1ccc(Cl)c(C(F)(F)F)c1)C(=O)C1CC(=O)N(C2CCCC2)C1 (stereo unspecified)	-5%	0.65	1.9	.	i	2.3	-1.1
26	Cc1cccc(C(=O)N2CCc3cc(-c4csc(NC(=O)CN5CCCC5)n4)ccc32)c1	.	0.69	6.4	5.0	i	8.5	6.8
27	CCC(=O)N1CCc2cc(S(=O)(=O)CCC(=O)N3CCN(c4ccc(Cl)cc4)CC3)ccc21	-11%	0.66	1.8	?	i	0.7	2.1
28	CN(CC(=O)NC1CCCCCC1)S(=O)(=O)c1ccccc1	0%	0.67	6.8	1.0	i	-16	-1.5
29	COc1ccc(C(=O)NCC(c2ccco2)N2CCc3ccccc3C2)cc1 (stereo unspecified)	-3%	0.64	-0.8	1.4	i	-1.9	2.6
30	C[C@@H]1CN([C@H](C)CO)C(=O)CCCn2nncc2CO[C@@H]1CN(C)C(=O)c1ccc(N2CCN(C)CC2)cc1	.	.	.	.	i	1.1&-3.1&0.3	-0.8

#	SMILES	Vif TR-FRET	Ecoli growth	UCH37 DUB inh	RanGTP-Imp inh	FGF22 binding	MLL AF4-AF9 inh	HNF4A DNA FP
31	Cc1ccc(S(=O)(=O)N2CCN(C(=O)CCNC(=O)c3ccccc3Cl)CC2)cc1	-3%	0.65	1.3	.	i	1.0	-6.2
32	COc1ccc(N2CC(C(=O)Nc3nc4ccc(S(C)(=O)=O)cc4s3)CC2=O)cc1 (stereo unspecified)	.	0.68	1.0	-2.5	i	-10.0	0.5
33	Cc1cnc(C(=O)OCC(=O)c2ccc(F)c(F)c2)cn1	0%	0.68	3.8	-1.2	i	-12	-0.5
34	Oc1ccccc1NCC(O)Cn1ccc2ccccc21 (stereo unspecified)	13%&30%	0.68	3.4	9.1	.	.	16
35	CC(=O)COC(=O)c1cc(-c2ccc(C)cc2)nc2ccccc12	-2%	0.69	-48	0.9	i	0.3	2.1
36	COc1ccc(C2Nc3ccccc3C(=O)N2c2ccc(C)cc2)cc1COc1ccccn1 (stereo unspecified)	.	0.71	-97	0.5	.	.	-2.7
37	CC(=O)n1nc(-c2ccco2)nc1N	1%	0.7	-2.6	-1.7	.	.	-3.6
38	COc1ccc(NC(=O)c2cc(S(=O)(=O)N3CCc4ccccc43)cn2C)cc1	.	0.71	-0.2	1.5	i	4.2	2.6
39	CCN(C1CCCCC1)S(=O)(=O)c1cc(C)ccc1OC	?	0.7	1.6	-0.8	.	.	2.2
40	CC(=O)NCCC(=O)N1CCc2c([nH]c3ccccc23)C1c1cccc(Cl)c1 (stereo unspecified)	9%	0.67	-0.2	5.4	i	3.9	-1.8
41	N/C(=N\OCC(=O)Nc1ccccc1)c1nonc1N	.	.	.	2.4	i	4.7	4.0
42	O=C(O)CSCC(=O)NCc1ccc(Cl)cc1Cl	.	0.63	2.1	0.1	i	-5.4	-2.5
43	O=C(c1ccco1)c1nc2c(n1O)CCCCC2	1%	0.72	14	-1.9	.	.	-1.5
44	Cc1cccc(N(CC(=O)N2CCCC2)S(=O)(=O)c2ccccc2)c1	7%	0.73	5.7	-2.8	.	.	1.1
45	N=c1c(C(=O)NCC2CCCO2)cc2c(=O)n3ccccc3nc2n1Cc1ccco1 (stereo unspecified)	7%	0.71	-50	73*	i	0.9	-2.5

#	SMILES	Vif TR-FRET	Ecoli growth	UCH37 DUB inh	RanGTP-Imp inh	FGF22 binding	MLL AF4-AF9 inh	HNF4A DNA FP
46	C[C@@H](C(=O)OCC(=O)c1ccc(F)c(F)c1)N1C(=O)C2CCCCC2C1=O (stereo partly specified)	.	0.69	1.4	.	i	-3.0	2.6
47	CS(=O)(=O)c1cnc(-c2ccccc2)nc1-c1ccccc1Cl	-21%	0.67	4.3	0.3	i	-1.5	-3.0
48	CCOC(=O)N1CCC2(CC1)C(C#N)=C(N)Oc1c2sc2nc(C)cc(C)c12	8%	0.69	-0.8	-2.5	.	.	-1.5
49	O=C1c2ccccc2C(=O)N1C1C=CC=CC=C1	-8%	.	.	.	i	1.8	3.6
50	Cc1cc(NC(=O)CSCC(=O)OCC(=O)Nc2ccc(OC(F)F)cc2)no1	1%	0.7	0.0	.	i	-1.1	0.3
51	O=C(CSc1ncnc2scc(-c3ccc(F)cc3)c12)c1ccc2c(c1)OCCO2	2%	0.71	5.4	2.4	.	.	-2.5
52	CC(=O)N1CCC(C(=O)Nc2ccc3c(c2)CCC3)CC1	-2%	0.7	-0.1	1.7	i	-1.6	-4.2
53	O=C(Nc1ccc2c(c1)OCO2)C1CC(c2ccc(F)cc2)=NO1 (stereo unspecified)	4%	0.72	1.5	3.6	.	.	1.4
54	CC(C)C(=O)NC(=S)Nc1ccc(S(=O)(=O)N(C)Cc2ccccc2)cc1	10%	0.79	4.2	1.8	.	.	1.9
55	COc1ccc2c(c1)c1c(n2C)[C@@H]2CC=C(CO)[C@@H](C1)N2C	.	.	-0.7	.	i	3.4	-0.6
56	COc1ccc(NC(=O)C2Cc3c(-c4ccccc4Oc4ccccc4)ccnc3O2)cn1 (stereo unspecified)	.	.	.	.	i	1.2	-0.1
57	O=C(OCC(=O)N1CCc2ccccc2C1)c1ccc(O)cc1	.	0.69	3.7	.	i	-0.3	4.6
58	COc1ccc(CC(=O)NCC2(c3ccc(OC)c(OC)c3)CCOCC2)cc1	0%	0.7	4.9	3.6	.	1.4	-0.7
59	O=C(c1ccc(-c2ccccc2Cl)o1)N1CCN(c2ccccc2O)CC1	11%	0.68	2.0	?	.	-3.1	-2.3
60	CCOc1ccc(N(C(C)C(=O)N/N=C(\C)c2cccc(NC(=O)c3ccccc3)c2)S(C)(=O)=O)cc1 (stereo unspecified)	11%	.	.	1.8	.	.	-0.5

#	SMILES	Vif TR-FRET	Ecoli growth	UCH37 DUB inh	RanGTP-Imp inh	FGF22 binding	MLL AF4-AF9 inh	HNF4A DNA FP
61	Cc1ccc2c(CSc3nc4ccccc4c(=O)n3CCCO)cc(=O)oc2c1	.	0.68	-0.5	.	i	-1.3	6.1
62	COc1ccccc1C(=O)N(Cc1ccc(C)o1)C1CCS(=O)(=O)C1 (stereo unspecified)	-2%	0.69	5.4	?	i	-1.9	-4.5
63	CCN(CC)S(=O)(=O)c1cccc(C(=O)N2CCCCC2)c1	-1%	0.74	3.9	3.9	.	.	2.5
64	Cc1cccc(C)c1NC(=S)NCc1ccccc1	8%	0.69	-0.7	0.8	i	-0.4	-0.8
